RVFV N-RNA inh = blocks Rift Valley Fever Virus nucleoprotein binding to RNA; P21700; RVFV N-RNA binding, fluorescence polarization; hits give low values; % bound, % (concentration not given with the values); actives 0.1% (n = 20,000); AID 651828;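 active = between 0 and 58% in either replicate with normal brightness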;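 note: 100 nL library stock added to about 12 µL; 100% = protein and probe without compound and 0% = probe alone; numbers are from one replicate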
Target sequence (P21700 whole entry, looked up): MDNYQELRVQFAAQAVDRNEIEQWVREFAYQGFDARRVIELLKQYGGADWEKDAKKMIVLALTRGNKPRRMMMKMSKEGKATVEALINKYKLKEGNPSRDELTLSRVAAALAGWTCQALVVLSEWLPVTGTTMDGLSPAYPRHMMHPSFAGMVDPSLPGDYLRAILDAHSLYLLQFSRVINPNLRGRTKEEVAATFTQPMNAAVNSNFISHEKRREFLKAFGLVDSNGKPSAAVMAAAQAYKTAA
An asterisk follows results filed as active; & = joins results of further samples.

SMILES	RVFV N-RNA inh
CC(C)CN(C1CCS(=O)(=O)C1)S(=O)(=O)c1cccs1 (configuration not stated)	91
CCOC(=O)c1c(C)n(Cc2ccccc2)c2ccc(OCC(O)CN3C(=O)CNC3=O)cc12 (configuration not stated)	90
Cc1cc(C)cc(NC(=S)NC(=O)C2CC2)c1	93
O=C(NCCSCc1ccccc1)c1ccccc1	97
CCOc1cccc(OCCCN(C)Cc2ccccc2)c1	90
O=C(Oc1ccc(Br)cc1)C1CCC(N2C(=O)C3C4C=CC(C4)C3C2=O)CC1 (configuration not stated)	90
CCN(Cc1ccncc1)C(=S)Nc1ccccc1	113
CC(C)CN1C(=O)c2ccc(C(=O)Nc3ccc(F)cc3)cc2C1=O	103
CC(C)(C)NC(=O)NCC(c1ccco1)N1CCc2ccccc2C1 (configuration not stated)	100
CCN(CC)S(=O)(=O)c1ccc(SC)cc1	97
OCCOc1ccc(OCCO)cc1	97
COc1ccc(Br)cc1C(=O)Nc1ccc(-c2nnc(-c3ccco3)o2)cc1	93
O=C1NC(=O)N(C2CCCCC2)C(=O)/C1=C/c1ccc(Br)cc1	95
CC[C@@H]1Cc2cc(O)ccc2C2=C1c1ccc(O)cc1C[C@H]2CC	94
CC(C)(C)NC(=O)NNc1nc2ccc(Cl)cc2s1	96
O=C(O)CSc1ccc2ccccc2c1	101
Cn1c(=O)c2c(nc(CN3CCN(c4ccc(F)cc4)CC3)n2CCN2CCOCC2)n(C)c1=O	86
Nc1nc(Nc2ccccc2)nc2c1ncn2[C@@H]1O[C@H](CO)[C@H](O)C1O (some centres not stated)	100
O=C1NC2(CCNCC2)N=C1c1ccc(Cl)cc1	91
CC(C)N(C(=O)Nc1ccccc1)C(C)C	98
CCc1nn(-c2ccccc2)c(=O)c2ccccc12	92
O=C1CC2(CCCC2)C(=O)N1c1ccc(S(=O)(=O)NCc2ccco2)cc1Cl	95
CC(C(=O)Nc1ncccn1)(c1ccccc1)c1ccccc1	94
CCCCCc1c(C)nc(-c2ccccn2)[nH]c1=O	89
CN1CCN(c2ccc(CNS(=O)(=O)c3ccc(-c4ccno4)s3)cc2)CC1	103

New compounds follow:
SMILES	RVFV N-RNA inh
CCOC(=O)c1ccc(N/C=C/C(=O)C(C)(C)C)cc1	98
Cc1cc(C)n(C(=O)N2c3ccccc3Sc3ccccc32)n1	96
O=C(CSc1ccccc1)N1CCN(C(=O)C2CCCO2)CC1 (configuration not stated)	92
CSc1oc(-c2ccco2)nc1S(=O)(=O)c1ccccc1	94
COC(=O)Nc1nn(Cc2ccccc2F)cc1Br	105
O=C(OCN1C(=O)c2ccccc2C1=O)c1ccco1	90
Cc1ccc(NC(=O)CSC2CC(=O)NC2=O)cc1 (configuration not stated)	104
Cc1ccc(NC(=O)CN2C(=O)C(C)SC(C)C2=O)cc1 (configuration not stated)	95
Cc1csc(/N=C/N(C)C)c1C#N	94
O=c1[nH][nH]c2cccc(F)c12	88
CCN(C(=O)Cc1cccs1)c1ccccc1	93
CCn1c(-c2ccc(Cl)cc2)cs/c1=N\N=C/c1ccc(O)cc1	94
CCN(c1ccccc1)c1ncnc2c1cnn2-c1ccc(C)cc1	101
CN(C)S(=O)(=O)c1ccc(/C(O)=C(\C#N)c2nc3ccccc3s2)cc1	94
O=C(Cn1c(=O)oc2ccccc21)c1ccc(Cl)cc1	96
CSc1nnc(-c2ccccc2)n1/N=C/c1cc(O)ccc1Cl	101
COc1cccc(CNc2cc(C)c3cccc(OC)c3n2)c1OC	98
Fc1ccc(N2COc3cc4c(cc3C2)OCO4)cc1Cl	88
CCOc1cc(C#N)ccc1OCC(=O)NC1CCCCCC1	92
CC1=NN(c2ccccc2)C(=O)/C1=C/c1ccc(OC(=O)c2ccco2)c(Cl)c1	86
N#CCc1ccc(NC(=O)Nc2cccc3ccccc23)cc1	98
O=C(CSc1ccc(Cl)cc1)NCCN1CCOCC1	100
O=c1c(Cl)c(N2CCOCC2)cnn1-c1cnc2ccccc2n1	93
Cc1ccc(F)cc1NC(=O)Nc1cc(C(C)(C)C)nn1C	101
CC(=O)Nc1ccccc1-c1ccccc1	93

Other structures follow.
SMILES	RVFV N-RNA inh
Cc1ccccc1NC(=S)N1CCCCC1	100
CC1CCCC(NCCN2CCOCC2)C1 (configuration not stated)	96
CCOC(=O)c1cc(S(=O)(=O)C(C)C)c(SC)s1	101
CSc1nnc2c(n1)OC(c1ccccc1)N(C(C)=O)c1ccccc1-2 (configuration not stated)	98
N=C(N)N	103
O=C(NCCSc1ncc(-c2ccccc2)[nH]1)c1ccco1	93
O=C(NCc1ccc(Cl)cc1)c1cccnc1OCC(F)(F)F	97
O=C(N/N=C/c1ccsc1)c1c[nH]c2ccccc12	93
CCC(NC(C)C)C(O)c1ccc(O)c(O)c1 (configuration not stated)	93
O=C(O)c1ccncc1Br	94
CN(C)C(=O)Nc1ccc(C(C)(C)C)cc1	84
CC1CN(CCn2cnc3c(N)ncnc32)CC(C)O1 (configuration not stated)	99
O=C1NCCc2c(OC3CCCC3)cccc21	100
CN(C)S(=O)(=O)c1ccc(C(=O)Nc2nnc(SCC(=O)NCC3CCCO3)s2)cc1 (configuration not stated)	96
CCOC(=O)CN(C)C1=NS(=O)(=O)c2ccccc21	90
CSc1ncc(C(=O)Nc2nc3ccccc3s2)cn1	88
CC1CCN(CC(=O)Nc2ccccc2C#N)CC1	93
C=CCNC(=S)N1CCN(C2CCCCC2)CC1	98
COC(=O)c1ccc(C(=S)N2CCCCC2)cc1	95
CSc1ccccc1-n1nnnc1SCCSc1ccccc1-n1nnnc1SC	93
Cc1cccc(Nc2ccccc2C(=O)O)c1C	98&99
Cc1nc(CSc2ncnc3sc4c(c23)CCC4)cs1	87
O=C(/C=C/c1ccco1)NC(=S)n1cnc2ccccc21	102
Cc1ccc2cc(NC(=O)c3cc(C)n(C)n3)ccc2n1	94
CSc1n[nH]c(-c2ccncc2)n1	97

Carrying on:
SMILES	RVFV N-RNA inh
O=C(CN1CCCC1)Nc1cccc(Cl)c1Cl	106
CNC(=O)c1ccsc1NC(=O)c1ccc(OC)c(OC)c1	95
Cc1nc(SCC(=O)O)[nH]c(=O)c1CCC(C)C	106
O=C(CSc1nc(=O)n(Cc2ccccn2)c2c1CCC2)N1CCCCC1	89
O=C(Nc1ccc2oc(-c3ccc(Cl)cc3Cl)nc2c1)c1ccc2c(c1)OCO2	100
Cc1cc(C)nc(NC(=O)C(C)N2C(=O)c3ccccc3S2(=O)=O)n1 (configuration not stated)	90
Cn1ncc(C(=O)O/N=C(\N)c2ccccc2)c1-n1cccc1	93
CC1=C(C#N)C(C)C2=C(CC(C)(C)CC2=O)N1 (configuration not stated)	84
Cc1onc(-c2ccccc2)c1-c1csc(-c2ccno2)n1	89
COC(OC)c1ccc(C#N)c(SCC(=O)c2ccc(C)cc2)n1	95
CN(C)CC(C)(C)CNC1CC2CCC1C2 (configuration not stated)	90
O=S1(=O)N=C(Oc2ccccc2Cl)c2ccccc21	96
O=c1[nH]c(Nc2ccccc2)cc2ccccc12	70
c1ccc(-c2cc(-c3ccccc3)c(N3CCCC3)nn2)cc1	99
O=C(Nc1ccc(N2CCOCC2)c2nonc12)c1cc2ccccc2oc1=O	95
CCn1c(Cc2ccccc2)n[nH]c1=S	99
CN(CCO)C12CC3CC(CC(C3)C1)C2	84
Oc1cc(O)c2c(c1)OC(c1ccc(O)c(O)c1)C(O)C2 (configuration not stated)	92
CC1CCN(CC(=O)Nc2ccccc2C(F)(F)F)CC1	97
NS(=O)(=O)c1ccc(-n2nc(C(F)(F)F)cc2-c2ccc(Cl)cc2)cc1	110
CCOC(=O)N1CCN(C(=O)COc2cccc3c2CCN(CC)C3=O)CC1	96
CCCCn1nnc(NC(=O)CC23CC4CC(CC(C4)C2)C3)n1	104
CC[C@@]1(O)C(=O)OCc2c1cc1n(c2=O)Cc2cc3c(O)cccc3nc2-1	76
Cn1c(NNC(=O)C(C)(C)Oc2ccc(Cl)cc2)cc(=O)n(C)c1=O	95
CCN(C1CCCCC1)S(=O)(=O)c1cc(F)ccc1OC	115

(next part)
SMILES	RVFV N-RNA inh
CCSc1cc(C)nc2ncnn12	101
Cc1sc(NC(=O)C2COc3ccccc3O2)c(C(N)=O)c1C (configuration not stated)	90
Cc1nc(-c2n[nH]c(=S)o2)cs1	95
COc1nc(-c2ccccc2)cc(-c2ccc(C)cc2)n1	97
COc1cc(CN2CCN3CCCC3C2C2CCCCC2)cc(OC)c1 (configuration not stated)	107
Cc1cc(C)nc(NC2=NCCN2C(=S)Nc2c(C)cccc2C)n1	102
CNC(=O)CN(c1cccc(F)c1)S(C)(=O)=O	96
Cc1cccc(C)c1-n1nnnc1SCC(=O)Nc1ccc2c(c1)OCO2	100
CNC(=S)Nc1ccccc1	95
O=C(N/N=C/c1ccco1)C1CC12CCC2 (configuration not stated)	93
CCOc1ccc(C(=S)N2CCCC2)cc1	99
COc1ccc(OC)c(S(=O)(=O)NC2CCCC(C)C2C)c1 (configuration not stated)	99
NC(=S)N/N=C/c1coc2ccccc2c1=O	83
O=C(CSc1ncn(-c2ccccc2)n1)N1CCc2ccccc21	91
O=C(O)CCSc1nccn1Cc1ccccc1	106
FC(F)(Cl)C(F)(F)Cl	100
O=C(c1ccc2c(c1)OCCO2)n1cccn1	93
Nc1nc2c(ncn2[C@@H]2O[C@H](CO)[C@@H](O)[C@@H]2O)c(=O)[nH]1	94
CN(C)C(=O)NCCc1ccc(F)cc1	90
COc1ccc(C(=O)NCc2n[nH]c(=O)c3ccccc23)c(OC)c1	92
CSc1nc2c([nH]c3ccccc32)c(=O)n1C	95
CN(C)c1cnccn1	101
O=C1CN(c2cccc(C(F)(F)F)c2)C(=O)CN1/N=C/c1cccnc1	89
CCCCN1Cc2c(sc3c2CCCC3)N(C(C)=O)C1	91
CCn1c(=NC(=O)C(C)(C)C)sc2ccccc21	98

(cont.)
SMILES	RVFV N-RNA inh
CN(C)C(=O)Oc1ccc(OC(=O)N(C)C)cc1	97
CCC(CC)NS(=O)(=O)c1ccc(Br)cc1	91
CS(C)(=O)=NS(=O)(=O)c1cc(S(=O)(=O)N=S(C)(C)=O)c(Cl)s1	95
CCN(Cc1ccccc1)C(=O)/C=C/c1ccc(OC)cc1	99
CC1=C(CCN2CCN(C/C=C/c3ccccc3)CC2)C(C)(C)CCC1	101
CCn1nc(C)c(NC(=O)c2cc(Br)ccc2Cl)c1C	96
Cc1cc(C)cc(-n2cc3c(=O)n(C)c(=O)n(C)c3c2)c1	96
Cc1ccc(NC(=O)/C=C2\SC(=O)NC2=O)cc1	97
Cn1c(C=C(C#N)C#N)ccc1S(C)(=O)=O	96
N#CCSc1ccc(-c2cccnc2)nn1	86
CC(=O)Nc1ccc(OCCCNC(=O)C2=NNC(=O)CC2)cc1	96
CCOC(=O)C(Cc1ccccc1)C(=O)Nc1cc(N(C)C)ccc1C (configuration not stated)	98
CCC(C)NC(=O)C(C)Sc1ccccc1 (configuration not stated)	94
CC(=O)Nc1ccccc1OC(=O)N(C)C	97
O=C1CCC(=O)N1CCC(c1ccccc1)c1ccco1 (configuration not stated)	97
Oc1c(Cl)cc(Cl)c(Cl)c1Cc1c(O)c(Cl)cc(Cl)c1Cl	98
CCOC(=O)c1c(N)sc(N)c1C(=O)OCC	98
Cc1ccc(NC(=O)CNc2ccccc2)cc1Cl	93
CCn1ccc2c(OCC(=O)NC3CCCC3)cccc2c1=O	107
COCCCCC(=NOCCN)c1ccc(C(F)(F)F)cc1	95
COc1cc2c(cc1OC)-c1c(C#N)c(-c3ccc4c(c3)OCO4)c(C(=O)c3ccccc3)n1CC2	96
NC(=O)c1sc2nccc(Nc3ccccc3)c2c1N	99
O=S1(=O)c2ccccc2Nc2ccccc21	98
CC[C@H](C)C(=O)O[C@H]1C[C@@H](C)C=C2C=C[C@H](C)[C@H](CC[C@@H]3C[C@@H](O)CC(=O)O3)[C@H]21	96&92
Cc1cc(C=Nc2ccc(Cl)cc2O)c(C)n1C	90

Next section:
SMILES	RVFV N-RNA inh
Cc1cc(-c2c(C(=O)Sc3ccccc3)c(C)nn2-c2cccc(C(F)(F)F)c2)no1	88
Nc1nnc(-c2cccc(Cl)c2Cl)c(N)n1	94&101&93
COC(=O)c1ccc(C=C(C#N)C#N)n1-c1ccc(F)cc1	92
COc1ccc(NC(=O)/C=C/c2ccc(Cl)cc2)cc1	94
O=C(Cn1cnc2sc(-c3ccccc3)cc2c1=O)N1CCCC1	95
Fc1c(F)c(F)c(OC(c2ccccc2)C(F)(F)F)c(F)c1F (configuration not stated)	89
Cn1c(N)c(C(=O)N/N=C/c2ccccc2)sc1=S	93
O=C(CCSCc1ccco1)NNC(=O)N1Cc2ccccc2Oc2ccc(Cl)cc21	97
CS(=O)(=O)Nc1ccc(Cc2noc(-c3ccc4[nH]cc(CCN)c4c3)n2)cc1	98
O=C1NC(=O)C(C(c2ccccc2)c2ccccc2)C(=O)N1	103
COCCNC(=O)Cc1ccccc1OC	91
CCCCn1c2ccccc2c2nnc(SC(C)C(=O)OC)nc21 (configuration not stated)	102
Cc1cc(C(=O)Nc2cccnc2)nn1C(C)(C)C	98
CCCCN(C(=O)c1cnc2n(c1=O)CCS2)c1ccccc1	95

Screening data (PubChem)

The list is partial, so the mix of outcomes need not match the whole.
